HCMV UL50-53 inh – inhibitors of HCMV UL50-UL53 interaction, biochemical, HTRF; normalized percent inhibition; HCMV UL50-UL53 nuclear egress complex (human cytomegalovirus); inhibition, % (test concentration not listed); 190,000 tested, 0.15% active;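 active = both replicates at 50% or more, plus weaker picks with an unusually low signal ratio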;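 note: stock transfer was 100 nL into about 20 µL; 0% = negative control wells and 100% = wells with untagged competitor protein; inactives centre near -12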
GIV Gai3 FP – inhibitors of GIV peptide binding to Galpha-i3, primary screen, biochemical, fluorescence polarization, FITC-GIV GBA peptide, rat Galphai3. Guanine nucleotide-binding protein G(i) subunit alpha-3 (Rattus norvegicus), P08753. 90 min; active compounds read low; scaled: aluminum fluoride 0%, vehicle 100%. percent of control (FP), % (test concentration not listed). 210,000 tested, 0.42% active;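 active = replicate mean at 85% of control or lower, very high polarization wells dropped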;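 note: lower values mean more displacement of the GIV peptide from Galpha-i3; wells of about 15 µL received 100 nL stock; the first replicate is given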
Target sequence (P08753 whole entry, looked up): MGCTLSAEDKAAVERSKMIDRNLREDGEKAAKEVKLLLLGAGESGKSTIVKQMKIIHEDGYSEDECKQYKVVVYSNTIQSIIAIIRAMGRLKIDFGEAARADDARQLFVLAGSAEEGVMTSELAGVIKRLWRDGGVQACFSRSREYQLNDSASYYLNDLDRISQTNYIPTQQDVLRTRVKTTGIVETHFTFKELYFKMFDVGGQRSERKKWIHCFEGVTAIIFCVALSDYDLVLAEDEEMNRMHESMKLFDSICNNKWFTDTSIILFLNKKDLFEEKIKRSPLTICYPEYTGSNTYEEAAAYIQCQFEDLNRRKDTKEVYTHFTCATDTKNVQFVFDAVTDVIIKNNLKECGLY
Sa growth inh – S. aureus growth inhibition at 42 and 30 °C, primary screen, LtaS inhibitor project, RN4220, two temperatures; 170,000 tested, 0.53% active; relative growth, % (test concentration not listed); OD600, 20 h, 42 °C; active compounds read low;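 active = growth at 42 °C up to 50% and 20 or more points under that at 30 °C, or under 10% at both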;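 note: 300 nL library stock went into each well; scaled to the means of positive and negative controls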
Sa growth inh second temp – second read-out of Sa growth inh, no call of its own (marks repeat the call); relative growth, %; measured here: growth at 30 °C;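 optical density after 20 h as mean of two plates; 100% = untreated growth and lower means inhibition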
Numbers without * were called inactive; x = not tested or not shown; & = joins results of further samples. Hits appear at their usual frequency; 0.82% or so of the library scored in one or more.

A first look (4 entries):
SMILES | HCMV UL50-53 inh | GIV Gai3 FP | Sa growth inh | Sa growth inh second temp
COc1ccccc1N1C(=O)C2C(c3ccc(F)cc3)NC(Cc3ccccc3)(C(=O)O)C2C1=O (stereo not drawn) | x | 99 | 121 | 91
COC(=O)c1ccc(Cn2cnc3c(cnn3-c3ccccc3)c2=O)o1 | 6 | 109 | 103 | 92
CCc1nnc2sc(-c3cc(C)on3)nn12 | -2 | 101 | x | x
O=S(=O)(Nc1nc(SCc2ccc(Cl)cc2)n[nH]1)c1cccs1 | -12 | 107 | 100 | 93

This part in full (from the top)
SMILES | HCMV UL50-53 inh | GIV Gai3 FP | Sa growth inh | Sa growth inh second temp
COc1ccccc1N1C(=O)C2C(c3ccc(F)cc3)NC(Cc3ccccc3)(C(=O)O)C2C1=O (stereo not drawn) | x | 99 | 121 | 91
COC(=O)c1ccc(Cn2cnc3c(cnn3-c3ccccc3)c2=O)o1 | 6 | 109 | 103 | 92
CCc1nnc2sc(-c3cc(C)on3)nn12 | -2 | 101 | x | x
O=S(=O)(Nc1nc(SCc2ccc(Cl)cc2)n[nH]1)c1cccs1 | -12 | 107 | 100 | 93
O=c1oc2cccnc2n1Cc1ccccc1 | -5 | 100 | 110 | 94
N=c1n(CC(N)=O)c2ccccc2n1Cc1ccc(Cl)c(Cl)c1 | -5 | 101 | 74 | 47
COc1ccc(N2CCN(C(=O)CCc3ccccc3OC)CC2)cc1 | -7 | x | 119 | 89
CCOC(=O)c1nnc(Cc2ccc(F)cc2Cl)o1 | 4 | 106 | 95 | 98
CC(=O)N1CCOc2ccc(S(=O)(=O)NCCc3ccccc3)cc21 | -15 | 105 | 99 | 80
CCCOC(=O)C1=C(C)NC2=C(C(=O)CC(c3ccc(OC)cc3)C2)C1c1cc(OC)c(OC)c(OC)c1 (stereo not drawn) | -39 | 104 | x | x
Cc1cc(C)c(NC(=O)C(C)Sc2nnnn2-c2ccccc2)c(C)c1 (stereo not drawn) | -2 | x | 112 | 98
CC(C)(C)NCC(O)c1cc(O)cc(O)c1 (stereo not drawn) | -30&1&-45&-4 | 101 | 94 | 90
CCS(=O)(=O)N1CCC(n2c(C)nc3cccnc32)CC1 | -15 | 102&99 | 86 | 87
CC1CCN(CCCNC(=O)c2cc3c(=O)n(C)c4ccccc4c3n2C)CC1 | x | 100 | 106 | 88
Cc1nnc(Nc2ccc(C(=O)O)cc2)[nH]c1=O | 18 | 105 | 86 | 85
CCOC(=O)c1sc(-c2ccc3c(c2)OCCO3)cc1N | -34 | x | 88 | 80
CCCCCOc1ccccc1CN1C(=O)C(=O)c2cc(C)ccc21 | 4 | 108 | 81 | 94
COc1ccccc1C1=NOC(C(=O)Nc2ccccc2C(F)(F)F)C1 (stereo not drawn) | x | 110 | 114 | 94
O=C(Nc1ccc(OCc2ccccc2)cc1)N1CCN(C(=O)C2COc3ccccc3O2)CC1 (stereo not drawn) | -39 | 101 | 128 | 57
O=C(COc1ccccc1O)N1CCCC1 | -2 | x | 87 | 87
COc1ccc(C(=O)N2CCc3cc(OC)c(OC)cc3C2C)cc1 (stereo not drawn) | -37 | 107 | 105 | 78
Clc1cn2ccsc2n1 | 0 | x | 104 | 102
CN1CCN(c2nnc(NC(=O)Cn3c(=O)oc4ccccc43)s2)CC1 | 5 | 105 | 90 | 87
CC(C)NCC(O)Cn1ccc(C(F)(F)F)n1 (stereo not drawn) | -25 | 97 | 107 | 89
O=C(NC1C2CC3CC(C2)CC1C3)c1ccc2c(c1)OCO2 (stereo not drawn) | -8 | 109 | 106 | 91
C=CCSc1nc2[nH]ncc2c(=O)[nH]1 | -22 | 107 | 97 | 85
CC1CCN(S(=O)(=O)c2cc(S(=O)(=O)N3CCC(C)CC3)c3cccc4c3c2SC4=O)CC1 | -50 | 99 | 95 | 88
CCC(CC)C(=O)N1CCN(c2nc3cc(Br)ccc3n3cccc23)CC1 | 13 | 101 | x | x
CCCCC(=O)Nc1ccc2oc(-c3ccc(OC)c(Cl)c3)nc2c1 | -30 | 101 | 102 | 89
S=c1[nH]c(-c2ccccc2)cn1/N=C/c1ccc2c(c1)OCO2 | -8 | x | 94 | 86
O=C(O)CSC1=NC2CCCCC2N1 (stereo not drawn) | -5 | 102 | 95 | 83
O=C(O)CSc1nccn1Cc1ccccc1 | -4 | 98 | 99 | 110
Cc1cc(C(=O)Nc2ccc3c(c2)OCCO3)no1 | 39 | 107 | 112 | 88
Cc1ccc(C(=O)NNc2nnc(C)c(=O)[nH]2)cc1 | -12 | 105 | 101 | 94
COc1cccc(-n2c(SCC(=O)Nc3ccc4c(c3)OCO4)nc3c([nH]c4ccccc43)c2=O)c1 | x | 106 | 101 | 91
COc1cc(Cl)c(NC(=O)C2CCCN(c3nc4cccnc4s3)C2)c(OC)c1 (stereo not drawn) | -22 | 101 | x | x
CSc1nnc(CCNC(=O)Nc2ccccc2)n1C(C)C | 20 | 106 | 95 | 101
CNC(=O)c1cccc2cccc(Br)c12 | -26 | 105 | 103 | 86
CCCS(=O)(=O)c1cnc(SC)nc1N | -3 | 109 | 96 | 88
CCOc1cccc2sc(NC(=O)c3ccc(S(=O)(=O)N4CCCCC4C)cc3)nc12 (stereo not drawn) | x | 98 | 94 | 93

Compound profiles (already shown):
CCCS(=O)(=O)c1cnc(SC)nc1N is listed with HCMV UL50-53 inh = -3; GIV Gai3 FP = 109; Sa growth inh = 96; Sa growth inh second temp = 88
O=C(O)CSc1nccn1Cc1ccccc1 is listed with HCMV UL50-53 inh = -4; GIV Gai3 FP = 98; Sa growth inh = 99; Sa growth inh second temp = 110

(continued)
SMILES | HCMV UL50-53 inh | GIV Gai3 FP | Sa growth inh | Sa growth inh second temp
Cc1ccc(-c2noc(-c3scc(-c4ccccc4)c3-n3cccc3)n2)cc1 | -23 | 99 | x | x
CCc1ccc(OCC(=O)Nc2ncn[nH]2)cc1 | -11 | x | 93 | 89
COc1ccc(CC(=O)Nc2sccc2C(N)=O)cc1 | -1 | x | 102 | 94
CC(C)Oc1ccc(CNS(=O)(=O)c2cnc(N)nc2)cc1 | x | 112 | 102 | 101
CCNc1c(NS(=O)(=O)c2ccc(C3CCCCC3)cc2)c(=O)oc2ccccc12 | x | 103 | 92 | 85
Cc1nc2sccn2c(=O)c1S(=O)(=O)Nc1ccc(CN2CCOCC2)cc1 | -23 | 97 | x | x
CN1CCN(CC(=O)N(c2ccccc2)c2ccc(O)cc2)CC1 | 9 | 99 | 86 | 88
CCC1CCCCN1C(=O)CC(=O)N1CCCCC1CC (stereo not drawn) | -9 | x | 119 | 91
CCc1ccc(N(CC)C(=O)c2cc3c(=O)oc4ccc(C)cc4c3s2)cc1 | -28 | 99 | 102 | 93
Cc1nc(N2CCOCC2)c2c(C)c(C(=O)NCC3COc4ccccc4O3)sc2n1 (stereo not drawn) | -20 | 106 | x | x
O=C(CSc1nc2ccccc2o1)N1CCc2c([nH]c3ccccc23)C1C(F)(F)F (stereo not drawn) | 15 | 109 | 100 | 92
COc1cccc(-c2cc(C(=O)N3CCOCC3)[nH]n2)c1 | 18 | 98 | x | x
CCOC(=O)c1oc2ccc(CC/C(C)=N/NC(=O)c3ccoc3C)cc2c1C | -14 | x | 102 | 86
NCCC(=O)N1c2ccccc2Sc2ccccc21 | x | 97 | 78 | 94
CCOC(=O)c1cc(NC(=O)CN2CCCC2)cc(C(=O)OCC)c1 | 0 | x | 105 | 87
CCOc1ccc(C(=O)Nc2cccc(OCc3cc(=O)n4cc(C)sc4n3)c2)cc1 | 3 | 104 | 100 | 90
CCCN(CCC)C(=O)Cn1c(=O)n(Cc2ccc(C(=O)NCCc3ccc(OC)c(OC)c3)cc2)c(=O)c2ccccc21 | 6 | 104 | 102 | 102
O=C(COc1cccc(Cl)c1)N1CCC(c2nc3ccccc3s2)CC1 | -29 | 102 | 94 | 42
O=C(Nc1ccc2c(c1)OCCCO2)C1CCCN(C(=O)c2ccc(Cl)cc2)C1 (stereo not drawn) | -26 | x | 90 | 96
CN(C)C=Nc1nonc1-c1ccccc1 | 9 | 108 | 129 | 101
CCC(C(=O)Nc1cc(-c2nc3cccnc3s2)ccc1C)c1ccccc1 (stereo not drawn) | -2 | 106 | 97 | 89
Cc1ccc(-c2cc(C(=O)N(Cc3ccc(C(C)(C)C)cc3)Cc3ccco3)no2)cc1 | 12 | 105 | 96 | 88
Cc1cccc(NC(=O)c2sc3nc4c(cc3c2N)CN(Cc2ccccc2)CC4)c1 | -22 | 100 | 109 | 87
Cn1c(=O)c2nc3ccc(NC(=O)C(F)(F)F)cc3nc2n(C)c1=O | -74 | 79* | 96 | 89
CC(C)Oc1ccc(C(=O)Nc2nc3c(s2)CC(C(C)(C)C)CC3)cc1 (stereo not drawn) | 6 | 100 | 103 | 91
CC12CC3CC(C)(C1)CC(NCc1cccnc1)(C3)C2 | x | 107 | 109 | 77
Cc1nc(Cc2nnc(SCc3cn4cccc(C)c4n3)o2)cs1 | -24 | x | 97 | 84
CCOC(=O)CC1NCCc2cc(OCC)c(OCC)cc21 (stereo not drawn) | x | 107 | 91 | 96
CC(C)C1Cc2c(sc3[nH]c(=S)n(Cc4ccccc4)c(=O)c23)CO1 (stereo not drawn) | x | 99 | 92 | 57
C=CCn1c(=O)c(C(=O)Nc2cccc(C)n2)c(O)c2ccccc21 | -16 | 105 | x | x
CCOC(=O)c1cc2c(=O)n3ccccc3nc2n(C)c1=NC(=O)/C=C/c1ccccc1 | x | 102 | 102 | 92
CCOc1ccc(-c2nc(CSCC(=O)NCc3ccc(Cl)cc3)c(C)o2)cc1 | x | 103 | 103 | 71
Cc1nnc(SCC(=O)O)o1 | -2 | 96 | 111 | 83
CCOC(=O)c1ccccc1NC(=O)CSc1ncc2c(n1)-c1ccccc1N(CC)S2(=O)=O | x | 104 | 141 | 79
COc1cccc(C(=O)Nc2nc(-c3ccc(F)cc3)ns2)c1 | 3 | 104 | x | x
COc1cc(NC(=O)CN2C(=O)c3ccccc3C2=O)c(OC)cc1Cl | -16 | 100 | 92 | 78
CC1CCN(S(=O)(=O)c2ccc(C(=O)NCCSCc3ccco3)cc2)CC1 | 0 | x | 107 | 95
COc1ccc(N2C(=O)CSC23C(=O)N(Cc2ccccc2F)c2ccccc23)cc1Cl (stereo not drawn) | x | 99 | 78 | 91
CC1=C(C(=O)Nc2ccccc2)C(c2ccc(Cl)cc2)n2ncnc2N1 (stereo not drawn) | -6 | 106 | x | x
Cc1ccc(NC(=O)Cn2nnc(-c3ccccc3)n2)c(C)c1 | x | 104 | 100 | 90
O=C(CCn1cccn1)Nc1cccc(C(F)(F)F)c1 | x | 95 | 91 | 87
COc1ccc(NS(=O)(=O)c2ccc(Cl)s2)cn1 | 38 | 93 | 94 | 88
O=C(NCCc1cccs1)C1CC1 | -4 | 97 | 88 | 104
S=C(NCCc1ccccc1)NCCc1c[nH]c2ccccc12 | x | 100 | 112 | 69
Cc1ccccc1CS(=O)(=O)Cc1ccc(C(=O)NCCc2ccc(Cl)cc2)o1 | x | 102 | 126 | 82
Cc1ccc(-c2cc(-c3nc(-c4ccc5c(c4)OCO5)no3)[nH]n2)cc1C | -16 | 150 | x | x
Cc1[nH]nc2c1C1(C(=O)N2)C(C#N)=C(N)Oc2ccc(Br)cc21 (stereo not drawn) | 12 | 106 | 108 | 99
COCCNC(=O)c1ccc2c(c1)N(Cc1cccc(Cl)c1)C(=O)c1ccccc1S2=O (stereo not drawn) | x | 101 | 105 | 88
N#C/C(=C\Nc1ccccc1)c1ccccc1 | 2 | 103 | 101 | 83
COc1ccc(-n2nc3c(N4CCCC(C(=O)NCCc5ccccc5C)C4)nnc(C)c3c2C)cc1 (stereo not drawn) | x | 180 | 102 | 74

Next section:
SMILES | HCMV UL50-53 inh | GIV Gai3 FP | Sa growth inh | Sa growth inh second temp
O=C(COc1ccc(F)cc1)Nc1ccc(-c2nc3ccccc3o2)cc1 | -2 | 127 | x | x
N/C(=N\c1nc2ccccc2o1)NC(=O)c1ccccc1NC(=O)c1ccccc1 | x | 106 | 84 | 74
CC1CCCCC1NC1=NCCS1 (stereo not drawn) | 1 | x | 102 | 89
CCOCCCNC(=O)c1ccc(Nc2cc(-c3cccc(C)c3)ncn2)cc1 | -30 | 102 | x | x
CCOC(=O)c1c(-c2ccccc2)oc2c1cc(OC(=O)c1ccccc1OC)c1ccccc12 | -8 | 101 | x | x
COc1ccc(O)c(C(=O)c2cnn(-c3ccccc3)c2)c1 | -9 | x | 114 | 86
O=C(O)CN1C(c2ccccc2O)Nc2ccc(Br)cc2C1c1ccccc1 (stereo not drawn) | -6 | 98 | 106 | 79
CCN(CC)S(=O)(=O)c1cccc(C(=O)OCC(=O)c2cc(C)n(C3CC3)c2C)c1 | -20 | x | 86 | 92
Nc1ccccc1OC1CCCC1 | -10 | 102 | 107 | 94

Two of the compounds above, with two lines to a compound.
Each structure is followed by: HCMV UL50-53 inh | GIV Gai3 FP | Sa growth inh | Sa growth inh second temp
COc1ccc(O)c(C(=O)c2cnn(-c3ccccc3)c2)c1
  -9 | x | 114 | 86
O=C(O)CN1C(c2ccccc2O)Nc2ccc(Br)cc2C1c1ccccc1 (stereo not drawn)
  -6 | 98 | 106 | 79

Assay outcomes (PubChem BioAssay)
